# Screens from PubChem.
# rRNA inh HTS = reduced GFP signal of wild-type E. coli, primary screen, bacterial rRNA inhibitor project, GFP/RFP fluorescence, OD600, single point; E. coli WT GFP vs humanized-ribosome RFP mutants, 24 h; active compounds read low; DMSO median 0, no signal -100; GFP signal change (wild-type ribosome), % (concentration not given with the values); 350,000 tested, 1.6% active;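 active = significant combined selectivity score with lowered wild-type GFP, culture density cut under 30%, mutant RFP and density less affected; inactive = any of these conditions unmet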; also: one replicate is shown; some compounds called inactive have numbers as strong as hits
# MLL AF4-AF9 inh = inhibitors of AF4 peptide binding to AF9, primary screen, biochemical, AlphaScreen, biotin-AF4 peptide, FLAG-AF9, single point. 350,000 tested, 0.47% active. inhibition, % at 10 µM;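 active = every replicate reaching a set inhibition limit, whatever the replicate mean, cut at about 25% in these data; inconclusive = mean inhibition reaches that limit but some replicates miss it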;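 also: 0% = plate neutral control median and 100% = total signal loss; the record names both 10 and 1 µM as test concentration; the first replicate is given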
# Target sequence (P42568 whole entry, looked up): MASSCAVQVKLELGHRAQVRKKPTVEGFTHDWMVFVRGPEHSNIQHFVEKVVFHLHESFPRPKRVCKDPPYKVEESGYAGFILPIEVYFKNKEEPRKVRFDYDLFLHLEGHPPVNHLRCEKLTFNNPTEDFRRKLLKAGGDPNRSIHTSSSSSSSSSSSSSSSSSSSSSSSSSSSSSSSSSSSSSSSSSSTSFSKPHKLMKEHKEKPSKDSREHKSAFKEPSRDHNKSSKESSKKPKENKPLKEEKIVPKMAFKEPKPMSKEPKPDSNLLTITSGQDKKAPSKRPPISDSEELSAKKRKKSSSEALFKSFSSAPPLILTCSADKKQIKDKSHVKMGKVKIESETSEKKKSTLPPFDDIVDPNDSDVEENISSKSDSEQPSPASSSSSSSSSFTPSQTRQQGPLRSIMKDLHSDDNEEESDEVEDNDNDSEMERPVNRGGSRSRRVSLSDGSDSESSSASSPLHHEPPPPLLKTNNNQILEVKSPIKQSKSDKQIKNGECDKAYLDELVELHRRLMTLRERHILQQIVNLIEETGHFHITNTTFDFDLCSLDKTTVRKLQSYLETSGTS
# Bfl-1 A1 inh = caspase 3/7 activation in MEF A1-2A-BIM cells, primary screen, A1 inhibitor project, cell-based, luminescence, HTS; caspase activation, % (test concentration not listed); Caspase-Glo 3/7 luminescence, 3 h; percent of clofoctol response, vehicle zero; 330,000 tested, 0.066% active; AID 2462, 2010;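 active = over half of replicate activation scores above 10%, or exactly half above 10 with the replicate mean above 10; inconclusive = replicate mean below 10 yet half the replicates above 10; inactive = over half of replicates below 10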;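 also: wells of about 30 µL received 50 nL stock; many hits fall short of the cut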
# Calb FLC = C. albicans growth inhibition with fluconazole, primary screen, CaCi-2 strain, Alamar Blue fluorescence | 300,000 tested, 0.57% active | C. albicans CaCi-2 (fluconazole-resistant clinical isolate) + fluconazole, 48 h | growth inhibition, % (concentration not given with the values);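 active = most replicates above 75%; inconclusive = exactly half above 75%; inactive = most below 75%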;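 also: all wells also contain fluconazole at 8 µg/ml as a sub-toxic cotreatment; 0% = median of DMSO wells and 100% = median of geldanamycin control wells; wells of about 8 µL received 7.5 nL stock; the first replicate is given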
# T cruzi repl = inhibitors of intracellular T. cruzi growth, primary screen, luminescence, NIH3T3 host cells | 300,000 tested, 1.4% active | T. cruzi beta-gal in NIH3T3, 90 h | inhibition, % (concentration not given with the values);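 active = mean inhibition across valid replicates above about 55%, limit read from the data; inconclusive = mean below that limit but half or more replicates reach it; inactive = mean below it, under half of replicates reach it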;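 also: signal also drops with host cell toxicity which is not excluded here; 0% = plate median of DMSO wells and 100% = zero luminescence signal; higher percent means less beta-gal luminescence so fewer parasites; stock transfer was 50 nL into about 50 µL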
# RanGTP-Imp inh = inhibitors of RanGTP-importin-beta interaction, primary screen, biochemical, FRET, CFP-Ran, YFP-importin-beta, homogeneous; Ran GTPase (GTP-bound) - importin-beta complex; cell-free CFP-Ran/YFP-importin-beta FRET ratio; inhibition, % (no concentration beside the values); 300,000 tested, 1.1% active; AID 2216, 2009;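 active = most replicates above 15%; inconclusive = exactly half above 15%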;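 also: 0% = DMSO wells and 100% = Ran loaded with GDP instead of GTP; wells of about 40 µL received 100 nL stock; the first replicate is given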
# Vif A3G = inhibitors of Vif binding to APOBEC3G peptide, primary screen, biochemical, TR-FRET, GST-Vif 1-94, biotin-A3G peptide, dose response retest (AID 1117319); TR-FRET GST-Vif / biotin-A3G peptide binding; higher % means a stronger effect; test concentration not given here; strong numbers were not always called active; inhibition, %; hits with a dose series show IC50 in µM; 260,000 tested, 0.57% active;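 active = above the screen mean plus three standard deviations and confirmed in dose response; inconclusive = results disagree or hit not tested in dose response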;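 also: Vif residues 1-94 fused to GST binding biotinylated APOBEC3G peptide 110-148; 0% = full assay without inhibitor and 100% = GST in place of GST-Vif; retest series ran down from 100 µM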
# Beta cell apopt = inhibitors of cytokine-induced beta cell apoptosis, primary screen, luminescence; INS-1E cytokine-induced death, ATP luminescence, 48 h; percent of positive-control rescue, neutral wells zero; protection from apoptosis, % (test concentration not listed); 300,000 tested, 0.8% active;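 active = all replicates at 75% or more, or half of them and the mean; inconclusive = half reach 75% but not the mean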;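 also: 0% = cytokine-treated negative control wells and 100% = positive control rescue; higher means more ATP so stronger rescue from cytokine killing; wells of about 40 µL received 100 nL stock; the first replicate is given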
# rRNA inh HTS OD600 = further read-out of rRNA inh HTS, marked with its call; OD600 change, %; measured here: OD600 growth;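 optical density of the mix in the first replicate; 0 = DMSO median and -100 = no signal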
# rRNA inh HTS RFP = also measured in rRNA inh HTS; calls as there; RFP signal change, %; measured here: RFP humanized mutant strains;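 first replicate; 0 = DMSO median and -100 = no signal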
# Starred values were filed as active, the others as inactive; ? = inconclusive; . = not tested or not shown; & = joins results of further samples.
item	Compound	rRNA inh HTS	rRNA inh HTS OD600	rRNA inh HTS RFP	MLL AF4-AF9 inh	Bfl-1 A1 inh	Calb FLC	T cruzi repl	RanGTP-Imp inh	Vif A3G	Beta cell apopt
1	CCCCc1ccc(NC(=S)N2CCN(C(=O)OCC)CC2)cc1	-2	-3	-1.5	-15	0.1	-7	-8	-2.5	.	.
2	Cc1ccc(Cn2nnc3c(=O)[nH]c(C4CCN(S(=O)(=O)c5ccc(C)cc5)CC4)nc32)cc1	.	.	.	.	0.1	111*	7	.	3%&1%	-5
3	COc1ccc(NS(=O)(=O)c2ccc(C(=O)OC(C)C(=O)N3CCOCC3)cc2)cc1 (stereo unspecified)	2	4	-0.9	0.0	-0.1	-2	-8	-2.5	-4%	0
4	CC(=O)c1ccc(OCCCC(=O)Nc2cccc(S(=O)(=O)N3CCCCCC3)c2)cc1	4	-25	1.9	-3.2	0.4	.	.	.	0%	-2
5	CCC(=O)c1cn(CC(=O)Nc2cccc(C)c2C)c2ccccc12	7	2	3.0	-0.1	-0.1	0	-36	-0.4	.	6
6	Cc1cc(C)nc(SCC(=O)O)n1	.	.	.	.	0.5	23	-2	-0.1	8%	-1
7	CCC(=O)Nc1cc(C(=O)OCc2ccc(C(=O)Oc3ccccc3)cc2)ccc1C	5	11	-2.5	1.1	-0.7	-14	-6	-0.3	-7%	-10
8	O=C1c2ccccc2C(=O)N1CC1c2ccccc2CCN1C(=O)CN1CCOCC1 (stereo unspecified)	1	-9	-0.4	-0.1	-0.3	-2	5	?	5%	-2
9	Cc1ccccc1OCc1nnc(SCc2nc3ccccc3c(=O)[nH]2)n1C	20	11	1.4	-0.9	-0.8	-24	-4	3.7	0%	2
10	O=C(COc1ccc(C(=O)c2ccccc2)cc1)Nc1cccnc1	-11	-14	-1.2	2.6	1.2	11	-5	-0.8	.	-7
11	Cc1ccccc1S(=O)c1ccccc1C(=O)O (stereo unspecified)	3	7	-0.1	-1.5	-0.3	-1	.	-3.2	14%	-4
12	COc1ccc(CN2CCN(C(=O)Cn3nc(C)n4cccc4c3=O)CC2)c(OC)c1OC	1	10	-3.1	-5.5	0.8	5	12	-1.9	.	-5
13	Cc1ccc(C(=O)NCCOC23CC4CC(CC(C4)C2)C3)cc1	-4	-13	5.1	1.9	-0.5	-62	30	-3.3	-1%	-8
14	CCOc1ccccc1C(=O)N[C@H](C(=O)Nc1nc2c(s1)CCCC2)C(C)C	-17	-21	6.4	4.6	0.3	-22	69*	3.6	-8%	-1
15	COC(=O)c1c(NC(C)=O)csc1C	7	-2	-1.7	.	-0.2	-9	-8	-2.1	-6%	5
16	CCOC(=O)C1=NN(c2cccc(C)c2)C2(S1)SC(C(C)=O)=C(C)N2c1ccccc1 (stereo unspecified)	.	.	.	.	-1.0	0	5	1.0	-4%&-5%	-2
17	Cc1oc(-c2ccc(Cl)cc2)nc1CS(=O)CC(=O)NCc1ccco1 (stereo unspecified)	-9	-16	-2.0	-6.4	-0.1	3	3	4.8	.	-11
18	CCOC(=O)c1oc2cccc(O)c2c1CN(Cc1ccccc1)C(C)=O	.	.	.	.	1.1	5	10	1.2	-2%	2
19	Cn1nc(C(=O)Nc2ccc(Cl)cc2)cc1C(=O)Nc1ccc(Cl)cc1	17	25	1.9	3.9	-0.6	0	-14	-2.7	0%	-4
20	c1ccc(Cn2nnc3c(N4CCOCC4)ncnc32)cc1	-3	10	3.3	5.0	-0.5	4	13	0.1	0%	2
21	O=C1CN=C(Nc2ccccc2)N1Cc1cccs1	.	.	.	.	-0.6	?	2	-2.7	-7%	-6
22	Cc1ccc(S(=O)(=O)N2CCCCC2)cc1NC(=O)COC(=O)C1=COCCO1	11	7	-0.1	-0.3	1.4	-2	16	-0.6	-6%	.
23	O=S(=O)(NC1CCCCCCC1)c1cccs1	.	.	.	.	1.6	-27	5	-1.8	-6%	-9
24	CC(NC(=O)c1ccc(CS(C)(=O)=O)cc1)c1ccc(-c2ccccc2)cc1 (stereo unspecified)	4	8	-2.5	1.5	-0.1	-19	17	1.2	.	-2
25	COc1cccc(OC)c1C(=O)N1CCN(C(=O)c2ccc(-c3ccccc3)cc2)CC1	-2	-8	-1.2	0.4	0.6	-13	6	2.5	-1%	3
26	Cc1nn(C2CCS(=O)(=O)C2)c(Cl)c1/C=C/C(=O)OCC(=O)Nc1ccccc1[N+](=O)[O-] (stereo unspecified)	8	2	-14	-1.1	-1.1	-4	2	4.9	5%	3
27	Cc1cc(-c2cc(C(=O)NC3CCCC3)on2)nc(NCC2CC2)n1	0	4	-2.6	-34	0.1	-13	-33	8.4	.	-1
28	CC(=O)c1ccccc1NC(=O)COC(=O)CCCN1C(=O)c2cccc3cccc(c23)C1=O	.	.	.	.	-0.3	1	7	13	-11%	-1
29	C/C(=C\COc1cc(=O)[nH]c2ccccc12)CCC(O)C(C)(C)O (stereo unspecified)	.	.	.	-7.0	-0.9	9	-11	-2.4	?	.
30	COc1cc(CNc2nc3ccccc3n2C)cc(OC)c1OC	.	.	.	.	-1.0	-22	-33	?	-1%	.

# Part of the list above, with two lines to a compound:
# Every second line gives: rRNA inh HTS | rRNA inh HTS OD600 | rRNA inh HTS RFP | MLL AF4-AF9 inh | Bfl-1 A1 inh | Calb FLC | T cruzi repl | RanGTP-Imp inh | Vif A3G | Beta cell apopt
1	CCCCc1ccc(NC(=S)N2CCN(C(=O)OCC)CC2)cc1
  -2 | -3 | -1.5 | -15 | 0.1 | -7 | -8 | -2.5 | . | .
2	Cc1ccc(Cn2nnc3c(=O)[nH]c(C4CCN(S(=O)(=O)c5ccc(C)cc5)CC4)nc32)cc1
  . | . | . | . | 0.1 | 111* | 7 | . | 3%&1% | -5
3	COc1ccc(NS(=O)(=O)c2ccc(C(=O)OC(C)C(=O)N3CCOCC3)cc2)cc1 (stereo unspecified)
  2 | 4 | -0.9 | 0.0 | -0.1 | -2 | -8 | -2.5 | -4% | 0
4	CC(=O)c1ccc(OCCCC(=O)Nc2cccc(S(=O)(=O)N3CCCCCC3)c2)cc1
  4 | -25 | 1.9 | -3.2 | 0.4 | . | . | . | 0% | -2
5	CCC(=O)c1cn(CC(=O)Nc2cccc(C)c2C)c2ccccc12
  7 | 2 | 3.0 | -0.1 | -0.1 | 0 | -36 | -0.4 | . | 6
6	Cc1cc(C)nc(SCC(=O)O)n1
  . | . | . | . | 0.5 | 23 | -2 | -0.1 | 8% | -1
7	CCC(=O)Nc1cc(C(=O)OCc2ccc(C(=O)Oc3ccccc3)cc2)ccc1C
  5 | 11 | -2.5 | 1.1 | -0.7 | -14 | -6 | -0.3 | -7% | -10
8	O=C1c2ccccc2C(=O)N1CC1c2ccccc2CCN1C(=O)CN1CCOCC1 (stereo unspecified)
  1 | -9 | -0.4 | -0.1 | -0.3 | -2 | 5 | ? | 5% | -2
9	Cc1ccccc1OCc1nnc(SCc2nc3ccccc3c(=O)[nH]2)n1C
  20 | 11 | 1.4 | -0.9 | -0.8 | -24 | -4 | 3.7 | 0% | 2

# New compounds follow:
item	Compound	rRNA inh HTS	rRNA inh HTS OD600	rRNA inh HTS RFP	MLL AF4-AF9 inh	Bfl-1 A1 inh	Calb FLC	T cruzi repl	RanGTP-Imp inh	Vif A3G	Beta cell apopt
31	CCSc1nnc(SCC(=O)NNC(=O)c2ccccc2F)s1	2	6	2.1	-0.9	-0.3	7	-8	0.6	.	-3
32	CC1(C)Cc2c(sc3c2c(=N)n(Cc2ccco2)c(=O)n3Cc2ccccc2)CO1	.	.	.	.	1.1	-6	32	1.3	5%&-3%	4
33	Cc1cccc(NS(=O)(=O)c2ccc(Oc3ccccc3)cc2)n1	.	.	.	.	1.3	4	2	2.6	-4%	-3
34	O=C(CSc1nc2ccccc2n1S(=O)(=O)c1ccccc1)N1CCCCC1	.	.	.	.	0.6	37	-3	2.0	4%	-4
35	O=C(NNc1nc2ccc(Cl)cc2s1)c1cc(-c2cccs2)nc2ccccc12	1	-5	0.4	0.4	0.3	86*	-30	0.6	-14%	6
36	O=C(NC(=S)N1CCCc2ccccc21)c1ccc([N+](=O)[O-])cc1	3	-2	-0.1	-38	-0.1	-2	52	0.3	15%	9
37	COc1ccc(S(=O)(=O)CCC(=O)N2CCN(c3ccc([N+](=O)[O-])cc3)CC2)cc1	-14	-19	-0.9	3.1	0.7	-1	-16	-4.0	.	11
38	C/C(=N\NC(=O)c1ccccc1O)c1c(O)cc(C)oc1=O	.	.	.	.	-8.7	2	-5	-0.8	33%	1
39	Cc1cc(=O)[nH]c(SCC(=O)N2CCN(C(=O)c3ccco3)CC2)n1	-1	13	-0.7	0.9	1.0	.	.	.	.	-1
40	Cc1cc(C)cc(COn2ccnc2)c1	.	.	.	.	?	1	-14	-3.4	25%	-8
41	COC(=O)C1=C(N)OC2=C(C(=O)CC(C)(C)C2)C1c1cccs1 (stereo unspecified)	.	.	.	.	-0.8	17	-15	4.3	13%	-2
42	O=C(NC(Cc1c[nH]c2ccccc12)c1nnc2n1CCCCC2)c1ccccc1 (stereo unspecified)	.	.	.	.	1.0	-3	8	0.7	11%	-5
43	Cc1ccc(C)c(N2N=C(C(=O)Nc3cccc(S(=O)(=O)N4CCCCC4)c3)CCC2=O)c1	-5	-1	5.2	2.8	-1.8	.	.	.	.	9
44	O=C(c1ccc(Cl)nc1)N1CCN(S(=O)(=O)c2ccc3c(c2)OCCO3)CC1	0	4	-0.9	2.4	0.3	.	.	.	-5%	-4
45	Cc1ccc(-c2nc3ccccc3[nH]2)s1	.	.	.	.	-6.7	.	1	-10	-1%	35
46	COc1ccc(NC(=S)Nc2cccc(C(F)(F)F)c2)c(C)c1	-39	-74	-27	0.5	-0.1	-22	-24	7.2	-8%	-6
47	COc1ccc(C(=O)Nc2ccccc2SCc2cc(=O)n3nc(C)sc3n2)cc1OC	7	-3	0.3	1.3	2.1	-2	-8	-2.9	.	-6
48	O=C(NCc1ccc(C(F)(F)F)cc1)C12CN(Cc3ccccc3)CC1C(c1cccc([N+](=O)[O-])c1)=NO2 (stereo unspecified)	-3	5	-4.4	4.9	-0.3	-2	39	2.5	11%	22
49	COc1ccc(N2CCN(C(=O)c3ccc(S(=O)(=O)N4CCCC4)cc3)CC2)cc1	7	-1	-2.3	2.6	0.1	1	-7	-1.1	.	4
50	COc1cccc2sc3cc(C#CC4(O)CCCCC4)ccc3c(=O)c12	-3	-1	35	-2.0	-0.5	.	.	.	.	9

# A portion of the library; count on the stated rates, not on these rows.
